GALR2 agonist: GALR2 receptor agonists, primary screen, cell-based; 140,000 tested, 0.48% active; Galanin receptor type 2 (Homo sapiens), O43603; activation, %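 (tested at 5 µM)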; AID 803, 2007; GALR2-expressing cells, agonist activation read-out;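 active means above mean plus 3 SD of all compounds, about 5% in these data, not always enough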;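 further: 0% = vehicle buffer wells and 100% = reference agonist at full effect; tested in CHO reporter cells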
HSV augment: enhancers of HSV replication in host cells, fold increase, host cell viability; 220,000 tested, 0.005% active; maximum fold increase; HSV replication augmentation in cells;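 active means peak rise of 1.5-fold or more in the series; tested in PC3 cells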;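 further: first round at 10 µM; read as green reporter fluorescence; hits show the peak of a series up to 25 µM; 1 = signal of infected wells without compound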
RGS16-Gao: modulators of RGS16 binding to Galphao, primary screen, biochemical, human proteins, multiplexed bead flow cytometry | bead-based flow cytometry RGS16-Galphao binding, fluorescence; actives lie on both sides | Regulator of G-protein signaling 16 (Homo sapiens) + Guanine nucleotide-binding protein … | AID 1441, 2008 | binding response (% of control), % at 10 µM | 220,000 tested, 0.38% active;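 active means below 25% or above 175%, edge rows of some plates excepted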;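 further: Galphao activated by GDP with aluminum fluoride before binding; 100% = wells without compound and 0% = beads without RGS; some results beyond the cut were filed as inactive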
INS promoter inh: inhibitors of insulin promoter-driven GFP, primary screen, imaging, TRM-6 cells (human fetal islet line), eGFP reporter, cell count; reporter expression induced with tamoxifen; inhibition, % at 2 µM; 130,000 tested, 0.9% active; AID 1273, 2008;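 active means inhibition above the mean plus 3 SD, with well images judged a real hit on visual review, cut at about 60% in these data, passing the limit was not always enough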
PKD1 kinase inh: inhibitors of human PKD1 kinase, biochemical, fluorescence polarization; Serine/threonine-protein kinase D1 (Homo sapiens), Q15139; PKD1 kinase fluorescence polarization assay; inhibition, %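 (about 10 µM by stock and volumes)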; 200,000 tested, 0.056% active; AID 797, 2007;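 active means inhibition of 50% or more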;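 further: controls were vehicle for no effect and a reference inhibitor for full effect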
Target sequence (Q15139 whole entry, looked up): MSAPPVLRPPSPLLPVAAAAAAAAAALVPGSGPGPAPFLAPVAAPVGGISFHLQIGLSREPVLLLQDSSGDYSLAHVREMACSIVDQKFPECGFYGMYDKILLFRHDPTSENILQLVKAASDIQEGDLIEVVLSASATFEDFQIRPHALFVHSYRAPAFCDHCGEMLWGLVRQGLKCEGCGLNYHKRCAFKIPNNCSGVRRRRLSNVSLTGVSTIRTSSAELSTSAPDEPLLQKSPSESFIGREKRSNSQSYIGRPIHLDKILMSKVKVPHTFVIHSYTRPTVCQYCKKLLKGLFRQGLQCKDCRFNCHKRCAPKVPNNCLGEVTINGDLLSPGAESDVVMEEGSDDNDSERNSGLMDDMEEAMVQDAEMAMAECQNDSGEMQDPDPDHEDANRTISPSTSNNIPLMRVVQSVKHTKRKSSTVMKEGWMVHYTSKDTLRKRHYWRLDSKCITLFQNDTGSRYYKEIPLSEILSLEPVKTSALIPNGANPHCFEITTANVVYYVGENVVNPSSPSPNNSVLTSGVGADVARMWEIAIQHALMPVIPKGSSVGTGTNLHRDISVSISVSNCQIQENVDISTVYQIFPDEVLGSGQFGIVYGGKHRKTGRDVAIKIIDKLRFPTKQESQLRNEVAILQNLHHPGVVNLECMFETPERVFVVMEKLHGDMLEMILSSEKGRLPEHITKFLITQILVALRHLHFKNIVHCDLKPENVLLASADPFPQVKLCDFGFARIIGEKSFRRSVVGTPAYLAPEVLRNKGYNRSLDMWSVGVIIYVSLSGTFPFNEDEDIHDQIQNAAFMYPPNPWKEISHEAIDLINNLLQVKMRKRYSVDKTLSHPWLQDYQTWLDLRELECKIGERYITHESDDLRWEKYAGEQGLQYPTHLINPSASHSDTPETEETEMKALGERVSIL
INS promoter inh cell count: also measured in INS promoter inh; calls as there; normalized cell count, %; measured here: cell count, toxicity; reference of the scale not given here;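 cells exposed to compound for 48 h; stained nuclei by imaging scaled within each plate; lower means fewer cells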
HSV augment primary fold: second read-out of HSV augment, no call of its own (marks repeat the call); fold increase; compound at 10 µM; measured here: primary screen fold increase 10 uM; tested in PC3 cells;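 GFP signal in the first replicate; 1 = infected wells without compound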
* = called active by the depositor; i = inactive; nt = no result given; [ ] = remark or other dose.

nr	molecule	GALR2 agonist	HSV augment primary fold	INS promoter inh cell count	INS promoter inh
1	COc1ccc(C(=O)CC(=O)O)c2c1C=CC(C)(C)O2	-1.6	0.86	95	67
2	CN1C(=O)/C(=C2\SC(=S)N(CC3CCCO3)C2=O)c2ccccc21 (stereo not drawn)	-1.1	0.99	147	-11
3	CCOCCCNC(=O)CCNC(=O)c1cc(OC)c(OC)c(OC)c1	-1.1	1	nt	nt
4	O=C(O)C1C2C=CC(C2)C1C(=O)NCc1cccnc1 (stereo not drawn)	1.2	1	67	61
5	O=[N+]([O-])c1ccc2c(c1)S(=O)c1ccccc1-2 (stereo not drawn)	nt	1.1	nt	nt
6	Cc1cc(=O)oc2c3c4c(cc12)OCCN4CCC3	15*	1	96	-35
7	CCOC(=O)c1c(C)nc2sc3c(=O)n(-c4ccc(C(C)=O)cc4)cnc3c2c1-c1ccc(Cl)cc1	3.0	0.88	140	-14
8	COc1ccc(C/C(N)=N/OC(=O)Cc2ccccc2)cc1OC	-0.4	0.95	69	13
9	O=C1CC(c2ccccc2)CC(=O)C1Sc1ccc(Cl)cc1 (stereo not drawn)	-1.2	1.2	50	2
10	COc1ccc(CCC(=O)NCCCNC(=O)CCc2ccc(OC)cc2)cc1	-0.8	0.88	129	3
11	CCn1c(SCc2ccc(C#N)cc2)nnc1-c1cccc(Cl)c1	1.1	1.2	71	5
12	COc1ccc(/C=N/NC(=O)c2[nH]c3ccc(Br)cc3c2-c2ccccc2)c(C(=O)O)c1OC	nt	0.98	nt	nt

nr	PKD1 kinase inh	HSV augment	RGS16-Gao
1	7	i	102
2	-11	i	103
3	-6	i	103
4	-2	i	88
5	nt	i	103
6	7	i	98
7	4	i	104
8	-9	i	106
9	-6	i	104
10	1	i	98
11	2	i	102
12	nt	i	103

More entries follow:
nr	molecule	GALR2 agonist	HSV augment primary fold	INS promoter inh cell count	INS promoter inh
13	Cc1cc(C)c(C(=O)c2ccc(C(=O)NC(C)(C)C)cc2)c(C)c1	-0.9	0.99	nt	nt
14	NC(=S)Nc1nc2ccccc2[nH]c1=O	-2.4	nt	66	-28
15	Cn1c(SCCC#N)nnc1-c1ccccc1F	nt	1	nt	nt
16	C=CCn1c(SCc2n[nH]c(=S)n2-c2ccccc2)nnc1-c1ccccc1	nt	1.2	nt	nt
17	CCc1ccc(C(=O)/C=C2\Sc3ccccc3NC2=O)cc1	-0.4	0.92	126	-21
18	O=C(CC1CCCCC1)Nc1c2c(nn1-c1ccc(F)cc1)CS(=O)(=O)C2	-1.1	0.91	123	-36
19	O=C(NCc1ccccc1)C1CCN(C(=O)NCc2ccccc2)CC1	-2.0	0.82	122	-6
20	O=C(COc1ccc([N+](=O)[O-])cc1)NNC(=S)NC(=O)c1ccc(Br)cc1	nt	0.85	145	64
21	C=CCN1c2ccccc2[C@]23C[C@@H](C(=O)OC)N(C(=O)CC(C)C)C2=NC(C(=O)OC)=C(C(=O)OC)[C@H]13	nt	0.96	nt	nt
22	O=C(COC(=O)c1cc(=O)[nH]c2ccccc12)Nc1cccc(S(=O)(=O)N2CCOCC2)c1	nt	0.97	nt	nt
23	CCN(CC)c1ccc(/C=N/NC(=O)OC(C)(C)C)cc1	nt	0.86	nt	nt
24	CCC(=O)N1CCc2cc(S(=O)(=O)CCC(=O)NCCc3ccc(OC)c(OC)c3)ccc21	-0.3	0.87	113	-92

nr	PKD1 kinase inh	HSV augment	RGS16-Gao
13	0	i	102
14	2	nt	102
15	1	i	103
16	nt	i	100
17	-12	i	98
18	8	i	107
19	-7	i	103
20	-4	i	110
21	nt	i	105
22	nt	i	104
23	nt	i	95
24	-8	i	103

The list continues.
nr	molecule	GALR2 agonist	HSV augment primary fold	INS promoter inh cell count	INS promoter inh
25	COc1cccc(CNC(=O)CCC2CCCN(C(=O)CCn3cncn3)C2)c1 (stereo not drawn)	nt	0.93	nt	nt
26	O=C(NCC1CCCO1)C(c1ccc(F)cc1)N(Cc1ccc2c(c1)OCO2)C(=O)c1ccc(CN2CCOCC2)o1 (stereo not drawn)	nt	0.99	nt	nt
27	CCN(CC)S(=O)(=O)c1cccc(S(=O)(=O)c2cccc(S(=O)(=O)N(CC)CC)c2)c1	0.3	0.95	76	-92
28	CCCCC(=O)Nc1ncc([N+](=O)[O-])s1	nt	0.99	85	-26
29	O=c1ccn(-c2cccc(C(F)(F)F)c2)nc1-c1ccn(-c2ccccc2)n1	-1.0	0.94	100	9
30	CCC(CC)C(=O)N1N=C(c2ccc(NS(C)(=O)=O)cc2)CC1c1ccc(C)cc1 (stereo not drawn)	nt	1	nt	nt
31	COc1ccc(CC(=O)N2CCC(Nc3nc4ccccc4n3Cc3ccc(F)cc3)CC2)cc1	-2.1	1	46	-314
32	CCOC(=O)C(C)Sc1nc2c(cnn2-c2ccc(C)cc2)c(=O)[nH]1 (stereo not drawn)	1.3	0.91	124	29
33	CS(=O)(=O)N1CCN(C(=O)c2csc3ccccc23)CC1	-2.1	1	150	30
34	COc1ccccc1OCc1nc2c3c(-c4ccccc4)c(-c4ccccc4)oc3ncn2n1	-2.0	nt	190	-33
35	C/C(N)=C(/C#N)C(=O)CSc1nc2scc(-c3ccccc3)c2c(=O)n1C	nt	0.94	87	-45
36	CCOC(=O)c1cc(-c2ccc(N3CCOCC3)cc2)nn1-c1ccccc1	0.2	0.99	123	20

nr	PKD1 kinase inh	HSV augment	RGS16-Gao
25	0	i	102
26	-7	i	106
27	-5	i	nt
28	2	i	99
29	4	i	99
30	nt	i	106
31	-5	i	122
32	6	i	105
33	-1	i	104
34	-1	nt	nt
35	-2	i	85
36	3	i	102

With a hit mark in GALR2 agonist, among the entries above:
#	Structure	GALR2 agonist	HSV augment primary fold	PKD1 kinase inh	RGS16-Gao
6	Cc1cc(=O)oc2c3c4c(cc12)OCCN4CCC3	15*	1	7	98

The listing picks up; the 2 compounds before the break are reprinted first.
nr	molecule	GALR2 agonist	HSV augment primary fold	INS promoter inh cell count	INS promoter inh
35	C/C(N)=C(/C#N)C(=O)CSc1nc2scc(-c3ccccc3)c2c(=O)n1C	nt	0.94	87	-45
36	CCOC(=O)c1cc(-c2ccc(N3CCOCC3)cc2)nn1-c1ccccc1	0.2	0.99	123	20
37	O=C(O)/C(=C/c1cccnc1)NC(=O)c1ccccc1	-0.3	1	97	14
38	COc1ccc2c(c1)n([O-])c1c([n+]2=O)CCC1	nt	0.82	nt	nt
39	O=C(c1ccc(Br)cc1)N1CCCC(c2nc(-c3cccs3)no2)C1 (stereo not drawn)	nt	1	nt	nt
40	CN1CCN(S(=O)(=O)c2cccc(C(=O)Nc3sc4c(c3C(N)=O)CCCC4)c2)CC1	-0.1	0.87	nt	nt
41	CCN(CC)CCNC(=O)c1cccc(NC(=O)C(=O)c2cc(Br)ccc2NC(C)=O)c1	nt	0.96	68	67
42	COc1ccc(CCn2c(N)c(C#N)c3nc4ccccc4nc32)cc1OC	0.7	0.87	63	26
43	C=CCc1c(C)nc(-c2ccccc2)nc1Nc1ccc(O)cc1	-2.0	nt	124	-169
44	CC12CCCc3c(O)cc(=O)n(c31)-c1ccccc12 (stereo not drawn)	-0.5	1	89	32
45	Cc1ccc(NC(=O)CCN2CCc3ccccc3C2)cc1	-3.3	0.8	nt	nt
46	CCCS(=O)(=O)N1CCN(C(=O)c2cccc(OC)c2)CC1	-0.7	1.1	nt	nt
47	O=C(NCc1cccnc1)C(=O)NCC1OCCN1S(=O)(=O)c1cc(F)ccc1F (stereo not drawn)	nt	1	nt	nt
48	O=C1NC(c2ccc(Br)cc2)=N/C1=C/c1ccco1	1.3	1.3	nt	nt

nr	PKD1 kinase inh	HSV augment	RGS16-Gao
35	-2	i	85
36	3	i	102
37	13	i	98
38	nt	i	85
39	4	i	104
40	-8	i	104
41	-8	i	111
42	-7	i	101
43	16	nt	101
44	-17	i	109
45	5	i	102
46	-3	i	103
47	nt	i	200*[activator]
48	-19	i	86

Remaining list, next part
nr	molecule	GALR2 agonist	HSV augment primary fold	INS promoter inh cell count	INS promoter inh
49	CCCn1nnc(NC(=O)COc2ccccc2Cl)n1	-1.6	0.68	110	-12
50	CC(OC(=O)c1ccc(F)cc1)C(=O)Nc1nc(-c2cccc([N+](=O)[O-])c2)cs1 (stereo not drawn)	-0.7	1	72	53
51	Cc1cc(C)c2c3c(sc2n1)C(=O)N(c1ccccc1)CC(=O)N3	nt	1	nt	nt
52	CN(C)c1ccnc2sc3c(=O)n(-c4ccccc4)cnc3c12	-2.8	1	30	i
53	O=c1c2c(-c3ccc([N+](=O)[O-])cc3)csc2nc2n1CCC2	-0.2	0.93	55	-481
54	CC(C)c1ccc(NC(=O)Cc2cn(C)c3ccccc23)cc1	nt	0.93	108	15
55	CC(=O)Nc1ccccc1Oc1ccccc1	nt	0.94	nt	nt
56	O=C(CN1CCOCC1)Nc1nc2ccc(F)cc2s1	-1.2	0.84	111	29
57	Cc1cccc(NC(=O)COC(=O)Cc2c[nH]c3ccccc23)c1C	-1.1	0.99	49	7
58	OCCCc1ccc(O)c(O)c1	nt	0.95	nt	nt
59	Cc1ccc(N=Cc2ccc[nH]2)c(O)c1	1.1	0.84	82	-59
60	COC(=O)c1c(C)oc(C)c1S(=O)(=O)NC(C)(C)C	nt	0.9	nt	nt

nr	PKD1 kinase inh	HSV augment	RGS16-Gao
49	-7	i	98
50	-4	i	166
51	nt	i	102
52	-5	i	99
53	-3	i	104
54	8	i	99
55	-1	i	106
56	1	i	115
57	-5	i	109
58	3	i	104
59	-2	i	98
60	nt	i	101

Arranged by the number under HSV augment primary fold (low to high): four of the compounds above.
no. | Molecule | GALR2 agonist | HSV augment primary fold | PKD1 kinase inh | RGS16-Gao
54 | CC(C)c1ccc(NC(=O)Cc2cn(C)c3ccccc23)cc1 | nt | 0.93 | 8 | 99
55 | CC(=O)Nc1ccccc1Oc1ccccc1 | nt | 0.94 | -1 | 106
57 | Cc1cccc(NC(=O)COC(=O)Cc2c[nH]c3ccccc23)c1C | -1.1 | 0.99 | -5 | 109
51 | Cc1cc(C)c2c3c(sc2n1)C(=O)N(c1ccccc1)CC(=O)N3 | nt | 1 | nt | 102

Next section
nr	molecule	GALR2 agonist	HSV augment primary fold	INS promoter inh cell count	INS promoter inh
61	CN(Cc1ccccc1Cl)C(=O)c1cnccc1C(F)(F)F	nt	1	nt	nt
62	O=C(CN1CCOCC1)N1N=C(c2cccs2)CC1c1cccs1 (stereo not drawn)	nt	0.92	66	48
63	COc1ccc(-c2noc(CN3CCC(Cc4ccccc4)CC3)n2)cc1	-2.5	1	133	53
64	CCO[C@@H]1OC(C(=O)N2CCN(Cc3ccc4c(c3)OCO4)CC2)=C[C@H](c2coc3ccccc3c2=O)[C@H]1CCCO	nt	0.91	nt	nt
65	CCCc1c(O)nc(SCCN(CC)CC)[nH]c1=O	-0.8	0.92	78	22
66	COc1ccc(C)cc1S(=O)(=O)Nc1ccc(F)cc1	-0.2	0.96	170	-28
67	COc1cc(C(=S)N2CCOCC2)cc(OC)c1OC(=O)Cc1ccc(F)cc1	-0.2	0.93	106	4
68	CCCNC(=O)COC(=O)c1ccc(S(=O)(=O)N2CCCC2)cc1	nt	1	nt	nt
69	O=C(c1ccc([N+](=O)[O-])cc1)N1CCOC12CCN(c1ncc(C(F)(F)F)cc1Cl)CC2	-2.3	0.94	nt	nt

nr	PKD1 kinase inh	HSV augment	RGS16-Gao
61	nt	i	101
62	0	i	107
63	-7	i	97
64	3	i	102
65	-1	i	109
66	-4	i	103
67	-3	i	84
68	2	i	100
69	8	i	101
